# INS promoter inh: TRM-6 insulin promoter activity inhibition. AID 1273. TRM-6 cells (human fetal islet line), insulin promoter-eGFP reporter, imaging; reporter expression induced with tamoxifen. inhibition, % at 2 µM. 130,000 compounds, 0.9% hits;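 active = inhibition above the mean plus 3 SD, with well images judged a real hit on visual review, cut at about 60% in these data, passing the limit was not always enough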
# HSV replic up: increases HSV replication in cells; HSV replication augmentation in cells, fold increase; maximum fold increase; 220,000 compounds, 0.005% hits;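 active = peak rise of 1.5-fold or more in the series; tested in PC3 cells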;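 also: first round at 10 µM; read as green reporter fluorescence; hits show the peak of a series up to 25 µM; 1 = signal of infected wells without compound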
# RGS16-Gao HTS: RGS16-Galphao interaction regulator (human); bead-based flow cytometry RGS16-Galphao binding, fluorescence; actives lie on both sides; binding response (% of control), % at 10 µM; 220,000 compounds, 0.38% hits;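 active = below 25% or above 175%, edge rows of some plates excepted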;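 also: Galphao activated by GDP with aluminum fluoride before binding; 100% = wells without compound and 0% = beads without RGS; some results beyond the cut were filed as inactive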
# GALR2 ag: agonists of human galanin receptor 2 (GALR2); GALR2-expressing cells, agonist activation read-out; activation, %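 (tested at 5 µM)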; 140,000 compounds, 0.48% hits; AID 803;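 active = above mean plus 3 SD of all compounds, about 5% in these data, not always enough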;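 also: 0% = vehicle buffer wells and 100% = reference agonist at full effect; tested in CHO reporter cells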
# PKD1 inh: inhibitors of human PKD1 kinase; 200,000 compounds, 0.056% hits; inhibition, %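 (about 10 µM by stock and volumes)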; PKD1 kinase fluorescence polarization assay; AID 797;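 active = inhibition of 50% or more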;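 also: controls were vehicle for no effect and a reference inhibitor for full effect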
# Target sequence (Q15139 whole entry, looked up): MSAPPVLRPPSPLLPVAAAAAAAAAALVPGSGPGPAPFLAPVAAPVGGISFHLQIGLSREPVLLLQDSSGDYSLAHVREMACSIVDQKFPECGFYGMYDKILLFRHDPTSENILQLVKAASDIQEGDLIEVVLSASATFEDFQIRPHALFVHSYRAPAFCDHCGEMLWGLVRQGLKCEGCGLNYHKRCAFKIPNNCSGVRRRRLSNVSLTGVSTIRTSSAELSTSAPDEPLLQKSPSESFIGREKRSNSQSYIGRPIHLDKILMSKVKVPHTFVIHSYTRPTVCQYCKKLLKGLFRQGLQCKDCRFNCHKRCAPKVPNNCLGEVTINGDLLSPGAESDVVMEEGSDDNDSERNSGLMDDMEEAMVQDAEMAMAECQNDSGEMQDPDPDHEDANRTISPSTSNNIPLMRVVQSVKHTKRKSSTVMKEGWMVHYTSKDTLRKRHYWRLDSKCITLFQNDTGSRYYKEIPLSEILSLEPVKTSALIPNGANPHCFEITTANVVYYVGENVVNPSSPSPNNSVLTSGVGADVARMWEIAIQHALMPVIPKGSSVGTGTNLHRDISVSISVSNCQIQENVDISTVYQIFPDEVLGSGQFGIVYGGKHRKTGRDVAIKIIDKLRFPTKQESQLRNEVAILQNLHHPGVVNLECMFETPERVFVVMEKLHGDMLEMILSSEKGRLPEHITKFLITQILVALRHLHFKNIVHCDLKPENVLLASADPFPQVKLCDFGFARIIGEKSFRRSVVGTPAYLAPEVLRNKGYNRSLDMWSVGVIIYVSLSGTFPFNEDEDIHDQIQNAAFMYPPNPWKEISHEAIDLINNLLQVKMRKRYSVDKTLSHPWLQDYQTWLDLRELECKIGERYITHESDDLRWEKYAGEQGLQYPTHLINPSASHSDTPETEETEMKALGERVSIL
# INS promoter inh cell count: also measured in INS promoter inh; calls as there; normalized cell count, %; measured here: cell count, toxicity; reference of the scale not given here;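 cells exposed to compound for 48 h; stained nuclei by imaging scaled within each plate; lower means fewer cells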
# HSV replic up primary fold: second read-out of HSV replic up, no call of its own (marks repeat the call); fold increase; compound at 10 µM; measured here: primary screen fold increase 10 uM; tested in PC3 cells;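 GFP signal in the first replicate; 1 = infected wells without compound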
# The depositor's hits bear a star; i = inactive; x = not tested or not shown.
# The line under a structure holds: HSV replic up, INS promoter inh, PKD1 inh, HSV replic up primary fold, RGS16-Gao HTS, GALR2 ag, INS promoter inh cell count
> COC(=O)c1ccccc1NC(=O)CSc1nnc(C(CO)NC(=O)c2ccccc2)n1C (configuration not stated)
→ i, -39, -6, 1, 105, -0.6, 49
> NNC(=O)CCCCCCCCCCOCCCCO
→ i, x, x, 1.1, 100, x, x
> COc1cccc(C(=O)Nc2cc(C)ccc2NC(=O)COc2ccccc2)c1
→ x, 34, -18, x, 103, -2.7, 100
> Cc1ccc(C(C)C)c(OCc2nn(CC(=O)c3ccc(Cl)cc3)c3[n+]2CCCCC3)c1
→ i, x, 2, 0.76, 100, x, x
> O=C(NCCCN1CCOCC1)c1sc2cc(F)ccc2c1Cl
→ i, 27, -8, 0.91, 108, x, 61
> CN(Cc1ccc(F)cc1)C(=O)COc1ccccc1-c1ccccc1
→ i, x, -8, 1.1, 68, -0.3, x
> CC(C)NC(=S)NC1(C)CCS(=O)(=O)C1 (configuration not stated)
→ i, x, 4, 1.2, 169, -0.5, x
> C=CCOc1cccc(C2C(C(=O)c3cccs3)=C(O)C(=O)N2Cc2cccnc2)c1 (configuration not stated)
→ i, -52, -4, 0.93, 108, x, 72
> O=C(N/C(=C\c1ccc(Cl)cc1)C(=O)N1CCOCC1)c1ccc([N+](=O)[O-])cc1
→ i, x, -7, 1.1, 101, x, x
> O=C(N/N=C/C1CCCCC1)c1ccccn1
→ i, 0, -2, 0.87, 102, -1.0, 107
> COc1cc(/C=N/N2C(=O)C3C4C=CC(CC4)C3C2=O)ccc1O (configuration not stated)
→ i, x, -2, 0.98, 96, x, x
> CCOC(=O)c1cn2nc(Oc3ccc(C#N)cc3)ccc2n1
→ i, x, x, 1.1, 100, x, x
> Cc1ccc2c(c1)nnc1nnc(SCC(=O)O)n12
→ i, x, x, 1, 105, x, x
> COc1cc(C=O)ccc1OCCSc1ccc(Cl)cc1
→ i, -23, -13, 0.87, 106, -2.2, 102
> CCOC(=O)c1cc(NC(=O)Nc2ccccn2)c(C)nc1C
→ i, -6, 1, 1.1, 100, x, 128
> COC(=O)c1cc(-c2ccc(C)o2)nc2ccccc12
→ i, -136, 6, 0.95, 125, -0.7, 38
> COC(=O)c1c(NC(NC(=O)C(C)C)C(Cl)(Cl)Cl)sc2c1CCCC2 (configuration not stated)
→ i, x, -11, 1, 14, -1.6, x
> N/C(=N\NC(=O)Nc1ccc(Cl)cc1)c1ccccn1
→ i, x, x, 1, 97, x, x
> Cn1c(=O)c2c(nc(NCc3cccnc3)n2Cc2ccc(Cl)cc2)n(C)c1=O
→ i, -275, -5, 0.86, 109, -1.9, 110
> COCCCNC(=O)CCc1nc(-c2ccccc2Cl)no1
→ i, 3, -2, 0.87, 89, -0.9, 77
> O=C(Nc1ccccc1)O/N=C/c1ccccc1Cl
→ i, -87, -4, 0.9, -19, -1.4, 112
> CCOC(=O)c1c(NC(C)=O)sc2c1CCC(C=NCCCN(CC)CC)=C2Sc1ccccc1
→ i, -181, 2, 1, x, 0.8, 83
> CN(C(=O)c1cc2n(n1)C(C(F)(F)F)CC(c1ccco1)N2)c1ccc(OC(F)(F)F)cc1 (configuration not stated)
→ i, 21, 3, 0.98, 94, -1.2, 115
> O=C(OC(C(=O)NCC1CCCO1)c1ccc(F)cc1)c1ccco1 (configuration not stated)
→ i, x, -2, 0.96, 102, -0.4, x
> CC(OC(=O)C1=NNC(=O)CC1)C(=O)Nc1ncc(Cl)cc1Cl (configuration not stated)
→ i, 48, 7, 0.82, 106, x, 90
> CC(C)N(Cc1nnc(-c2ccccc2Cl)o1)C(=O)c1cccc(C#N)c1
→ x, x, -12, x, x, -0.8, x
> CNC(=O)c1ccc(N(Cc2ccccc2)S(C)(=O)=O)cc1
→ i, 56, -9, 0.92, 88, -3.9, 156
> Cc1ccc(C(=O)OCC(=O)Nc2c(Cl)cc(S(N)(=O)=O)cc2Cl)o1
→ i, x, x, 1.1, 93, x, x
> CC(C)CC(C(=O)Nc1ccccc1)N1C(=O)C2C3C=CC(C3)C2C1=O (configuration not stated)
→ i, x, -1, 1.1, 101, x, x
> CN(C)S(=O)(=O)c1cccc(NC(=S)N/N=C/c2ccc(O)c(O)c2O)c1
→ i, x, x, 1.3, 82, x, x
> O=C(CCC1CCCN(C(=O)c2cccs2)C1)N1CCN(c2ccccn2)CC1 (configuration not stated)
→ i, x, -4, 1.1, 53, x, x
> COc1ccc(OC)c(N(CC(=O)NC2CC2)S(=O)(=O)c2ccc(C)cc2)c1
→ i, x, 5, 0.94, 103, -1.5, x
> CN(C)/C=C(/C(=O)c1ccc(Cl)c(Cl)c1)S(C)(=O)=O
→ i, -15, -3, 1, 98, x, 77
> COC(=O)CCN(C(=O)C12CC3CC(CC(C3)C1)C2)c1ccccn1
→ i, -33, -1, 1, 123, -0.8, 131
> CCCn1c(=N)n(CC(=O)c2ccc([N+](=O)[O-])cc2)c2ccccc21
→ i, -46, -4, 0.94, 102, x, 119
> O=C(NCCc1ccccc1)C1CCCN1C(=O)NCc1ccccc1 (configuration not stated)
→ i, -21, -4, 0.85, 100, -1.3, 93
> COc1ccc(CCN2C(=O)CC(Cc3ccc(C)cc3)C2=O)cc1OC (configuration not stated)
→ i, x, -9, 1, 109, x, x
> CCC(=O)N1CCN(c2ccc(Cl)cc2NC(=O)c2ccc(N3CCCC3)c([N+](=O)[O-])c2)CC1
→ i, x, -3, 0.85, 99, -1.7, x
> O=c1cc(CN2CCN(c3cccc(C(F)(F)F)c3)CC2)nc2sccn12
→ i, x, x, 0.94, 103, x, x
> COc1cc([N+](=O)[O-])ccc1NC(=O)Cc1ccc(F)cc1
→ i, 0, 10, 0.91, 106, 0.0, 129
> CCOC(=O)c1c(C)nc2c(c1C)/C(=N/O)CC(C)(C)C2
→ i, x, 3, 0.95, 99, -0.4, x
> O=C(NCc1ccccc1)c1ccc(F)c(S(=O)(=O)N2CCOCC2)c1
→ i, x, -10, 0.99, 105, -0.4, x
> COc1ccccc1CN(CC(=O)NCc1ccco1)C(=O)CNS(=O)(=O)c1ccccc1
→ i, -8, -6, 1.1, 103, -1.4, 69
> CC1=NN(c2ccccc2)C(=O)C1N=Nc1ccc(N)cc1 (configuration not stated)
→ i, 16, 5, 0.68, 92, -0.5, 98
> CC12CCC(C(=O)Nc3ncc([N+](=O)[O-])s3)(OC1=O)C2(C)C (configuration not stated)
→ i, 14, -10, 1, 100, -3.0, 188
> COc1ccc(Nc2oc(COc3ccc(C)cc3)nc2C#N)cc1
→ i, 55, -2, 0.86, 107, 0.3, 56
> CCOC(=O)c1c(C)c(C(=O)NCCCOC(C)C)c(C)n1C
→ i, x, -2, 1.1, 106, -0.6, x
> COc1ccc2c(Cl)c(C(=O)NCCCn3ccnc3)sc2c1Cl
→ i, -31, 1, 0.66, 97, 5.4, 96
> Cc1nnsc1C(=O)NNc1c(Cl)cccc1Cl
→ i, x, x, 1.1, 97, x, x
> CCCC(=O)NC(=S)NNC(=O)c1ccc([N+](=O)[O-])cc1
→ i, -33, -3, 1.1, 111, 0.0, 107
> Cc1nc(SCC(=O)Nc2ccccc2)c2oc3ccccc3c2n1
→ i, 7, -9, 0.88, 99, -2.6, 95
> CCNc1nc(NCC)nc(N/N=C/c2ccc([N+](=O)[O-])o2)n1
→ i, -11, -4, 0.75, 104, -3.4, 110
> COc1ccc(C2=NO[C@@H]3C(=O)N(C4CCCCC4)C(=O)[C@H]23)cc1OC
→ i, -13, -20, 1, 100, -4.3, 130
> COc1cccc(-c2nc(Cc3ccc(OC)c(OC)c3)no2)c1
→ i, x, -3, 0.9, 99, -1.6, x
> COc1ccc(CC2(C)OC(c3ccc(Cl)cc3)=NN2C(C)=O)cc1 (configuration not stated)
→ i, x, 9, 0.87, 102, -1.2, x
> CCOC(=O)c1ccc(COC(=O)c2ccc3c(c2)-c2ccccc2C3=O)cc1
→ i, 3, -21, 0.97, 101, -3.5, 100
> CC(CN1CCNCC1)(NS(=O)(=O)c1ccccc1)c1ccccc1 (configuration not stated)
→ i, 7, -5, 1, 106, -0.9, 57
> Cc1ccc(/C=N/Nc2ncc(Cl)cc2Cl)s1
→ i, 46, -2, 0.72, 93, -0.3, 141
> CCN(CC)CC(=O)NN=C(c1ccccc1)c1ccccc1
→ i, -15, -1, 0.98, 106, -1.5, 88
> CCn1nc(C)c(CNC(=O)CC2C(=O)NCCN2Cc2ccc(C)o2)c1C (configuration not stated)
→ i, 22, -5, 0.97, 105, x, 68

# Pulled by structure from above:
# The line under a structure holds: HSV replic up, INS promoter inh, PKD1 inh, HSV replic up primary fold, RGS16-Gao HTS, GALR2 ag, INS promoter inh cell count
> CN(Cc1ccc(F)cc1)C(=O)COc1ccccc1-c1ccccc1
→ i, x, -8, 1.1, 68, -0.3, x
> COc1ccc(C2=NO[C@@H]3C(=O)N(C4CCCCC4)C(=O)[C@H]23)cc1OC
→ i, -13, -20, 1, 100, -4.3, 130

# Compounds above that have fluorine (seven):
# The line under a structure holds: HSV replic up, INS promoter inh, PKD1 inh, HSV replic up primary fold, RGS16-Gao HTS, GALR2 ag, INS promoter inh cell count
> O=C(NCCCN1CCOCC1)c1sc2cc(F)ccc2c1Cl
→ i, 27, -8, 0.91, 108, x, 61
> CN(Cc1ccc(F)cc1)C(=O)COc1ccccc1-c1ccccc1
→ i, x, -8, 1.1, 68, -0.3, x
> CN(C(=O)c1cc2n(n1)C(C(F)(F)F)CC(c1ccco1)N2)c1ccc(OC(F)(F)F)cc1 (configuration not stated)
→ i, 21, 3, 0.98, 94, -1.2, 115
> O=C(OC(C(=O)NCC1CCCO1)c1ccc(F)cc1)c1ccco1 (configuration not stated)
→ i, x, -2, 0.96, 102, -0.4, x
> O=c1cc(CN2CCN(c3cccc(C(F)(F)F)c3)CC2)nc2sccn12
→ i, x, x, 0.94, 103, x, x
> COc1cc([N+](=O)[O-])ccc1NC(=O)Cc1ccc(F)cc1
→ i, 0, 10, 0.91, 106, 0.0, 129
> O=C(NCc1ccccc1)c1ccc(F)c(S(=O)(=O)N2CCOCC2)c1
→ i, x, -10, 0.99, 105, -0.4, x

# (listing goes on)
# The line under a structure holds: HSV replic up, INS promoter inh, PKD1 inh, HSV replic up primary fold, RGS16-Gao HTS, GALR2 ag, INS promoter inh cell count
> COc1ccccc1N(C(=O)c1ccncc1)c1nc(-c2ccc([N+](=O)[O-])cc2)cs1
→ i, -5, -7, 0.85, 38, -0.1, 69
> O=C1OC(c2ccccc2)/C(=C(/O)c2ccc(Cl)cc2)C1=O (configuration not stated)
→ i, 75*, 4, 0.84, 110, -0.3, 124*
> O=C(O)c1ccc(NC(=S)NC2CCCCC2)cc1
→ i, x, 4, 0.99, 101, 0.2, x
> COc1ccc(Oc2nc(C)cc(C)c2C#N)cc1
→ i, 0, -5, 0.78, 95, -2.5, 169
> Cc1oc(-c2ccc(Cl)cc2)nc1CS(=O)CC(=O)NCCN1CCCC1 (configuration not stated)
→ i, x, -3, 0.82, 101, -1.5, x
> CCC(C)NC(=O)Cc1cn(C)c2ccccc12 (configuration not stated)
→ i, -19, -5, 0.91, 104, -1.9, 105
> COc1ccc(CNS(=O)(=O)c2cc(OCC(N)=O)c(C)cc2Cl)cc1
→ i, 7, -11, 0.8, 104, -2.5, 68
> COc1ccc(CC(=O)c2c(O)cc(O)cc2O)cc1OC
→ i, 25, -9, 0.95, 99, -0.4, 105
> CCCN1C2CCCC1CC(NC(=S)Nc1cccc(C)c1)C2 (configuration not stated)
→ i, x, -4, 0.93, 92, x, x
> O=C1CCCN1CCCNC(=S)Nc1ccc(Nc2ccccc2)cc1
→ i, x, 3, 0.98, 103, x, x
> COc1ccc(Nc2nc3ccccc3nc2NS(=O)(=O)c2cccs2)c(OC)c1
→ i, x, x, 0.91, 100, x, x
> CCn1c(SCC(=O)Nc2ccc(C)cc2)nc(O)cc1=O
→ i, x, x, 0.88, 93, x, x
> CC(C)Sc1nc(N2CCOCC2)c2c(c1C#N)CC(C)(C)N(C)C2
→ i, 21, 5, 0.88, 103, 0.9, 51
> C/C(CC(=O)Nc1cccc(C(F)(F)F)c1)=N/NC(=O)C(=O)NCCO
→ i, x, x, 1.1, 100, x, x
> O=C(CCc1nc(-c2ccccc2)c(-c2ccccc2)o1)OCc1ccc(Cl)cc1
→ i, -17, -11, 1.2, 106, -3.2, 157
> CC(C)(C)c1ccc(/C=N/N2CCN(c3ccccn3)CC2)cc1
→ i, x, x, 1, 107, x, x
> Cc1ccc(S(=O)(=O)N(CC(=O)N=Nc2c(O)[nH]c3ccccc23)c2cccc(C)c2)cc1
→ i, -70, 4, 0.81, 104, -0.4, 71
> C=CCOC(=O)C1=C(C)OC(N)=C(C#N)C1c1ccc(F)cc1 (configuration not stated)
→ x, x, -1, x, 105, -1.2, x
> CCC1(c2ccccc2)C(=O)NCNC1=O
→ i, 18, -12, 0.96, 100, -1.4, 120
> COc1ccccc1CN1C(=O)c2cccc3cccc(c23)C1=O
→ i, x, -18, 1.1, 103, 0.3, x
